Screening results from PubChem.
Measles inh – inhibitors of measles virus growth in cells, primary screen, measles RdRp inhibitor project, cell-based, single point, HTS; infected Vero cells, GFP fluorescence, 64 h; hits give low values; z-score (test concentration not listed); 33,000 compounds, 0.1% hits; AID 745, 2007;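 active means z-score under -3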;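 further: score is relative to mean and SD of the compound wells of a plate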
Active calls of the source: *. Not all compounds are listed; rates above refer to the full screens.

Compound | Measles inh
COc1ccccc1NC(=O)c1sc2nc(-c3ccccc3)cn2c1C | 0.14
O=c1c2cn[nH]c2nc(SCc2cccc(F)c2)n1-c1ccc(Cl)cc1 | -0.84
CN(C(=O)c1ccc(=O)[nH]c1)C1(C(=O)NC2CCCC2)CCCCC1 | 0.02
Cc1ccc(C)c(NC(=O)CN(c2c(C)cccc2C)S(C)(=O)=O)c1 | -0.04
O=C(O)CSc1sc(=S)sc1SCC(=O)O | 0.33
O=C(Nc1ccc2oc(-c3ccncc3)nc2c1)c1cccc(OCc2ccccc2)c1 | 0.03
CCc1ccc(C2C(C(=O)OC)=C(C)NC(C)=C2C(=O)OC)cc1 | -1.78
CN(c1ccccc1)S(=O)(=O)c1ccc(C(=O)N=c2sc3cccc(Cl)c3n2C)cc1 | -0.04
NC(=O)c1ccc(Nc2ccc3nonc3c2[N+](=O)[O-])cc1 | 0.06
CCCSc1nnc2c(n1)OC(c1ccc(Br)s1)Nc1ccccc1-2 (stereo not drawn) | -0.75
Cc1ccc(CCNC(=O)c2ccc(N3CCCC3=O)cc2)cc1 | -0.06
O=C1c2ccccc2C(=O)c2c(NC(=O)c3cc(-c4ccccc4)nc4ccccc34)cccc21 | -0.02
COc1cc(NC(=O)COc2ccccc2)c(OC)cc1Cl | -0.62
CC(Cl)=CCn1c(SCc2ccccc2)nc2c1c(=O)[nH]c(=O)n2C | -0.12
Cc1cccc(NC(=O)c2ccc(N3CCc4ccccc43)c([N+](=O)[O-])c2)c1 | -1.31
CCOC(=O)C1=C(N)N(c2ccc(Cl)cc2)C2=C(C(=O)CC(C)(C)C2)C1c1cc(OC)c(OC)c(OC)c1 (stereo not drawn) | -0.38
COc1cccc(-c2nnc(-c3ccc(OC)c(OC)c3)o2)c1 | -2.05
CCOc1ccccc1NC(=O)CCN1C(=O)c2cccc([N+](=O)[O-])c2C1=O | -0.73
CCN(CC)C(=O)c1cc2cc3ccc(C)cc3nc2o1 | -1.69
CCSc1nnc2c(n1)OC(c1cc(O)c(O)c(Br)c1)Nc1ccccc1-2 (stereo not drawn) | -0.15
COc1ccccc1C1N=C(c2ccc(C)cc2)CC(c2ccccc2O)N1 (stereo not drawn) | 0.45
CCOC(=O)C1=C(C)NC2=C(C(=O)CC(C)(C)C2)C1c1ccsc1 (stereo not drawn) | 0.38
O=C1OC(Nc2ccc(Cl)cc2C(F)(F)F)c2ccccc21 (stereo not drawn) | -0.21
Cc1cc(C)c(S(=O)(=O)NCC2CCC(C(=O)NCc3cccnc3)CC2)c(C)c1 (stereo not drawn) | 0.59
CSc1ccc(C2SCC(=O)N2c2cccc(F)c2)cc1 (stereo not drawn) | 1.16

Molecules shown so far with an NH in an aromatic ring (3):
Compound | Measles inh
O=c1c2cn[nH]c2nc(SCc2cccc(F)c2)n1-c1ccc(Cl)cc1 | -0.84
CN(C(=O)c1ccc(=O)[nH]c1)C1(C(=O)NC2CCCC2)CCCCC1 | 0.02
CC(Cl)=CCn1c(SCc2ccccc2)nc2c1c(=O)[nH]c(=O)n2C | -0.12

Following part
Compound | Measles inh
CCOc1ccc(-n2nc(C(=O)Nc3ccc(C)c(F)c3)c3ccccc3c2=O)cc1 | -0.09
CCCCn1c(CCNC(=O)CC)nc2ccccc21 | 1.45
CC(C)(C)c1ccc(S(=O)(=O)Nc2cc(SCC(=O)O)c(O)c3ccccc23)cc1 | -0.31
COc1ccc(C(=S)N2CCN(c3cccc(Cl)c3)CC2)cc1 | 0
COc1ccc2oc(C)c(C(N)=O)c2c1 | -0.51
CCC1Oc2ccc(C)cc2N(CC(=O)NCCCN2CCCC2)C1=O (stereo not drawn) | -0.26
CC(C)c1ccc(OCC(=O)Nc2ccc(S(=O)(=O)Nc3ncccn3)cc2)cc1 | -0.34
COc1cc(NC(=O)CCCOc2cccc(C)c2)c(OC)cc1Cl | -0.13
CCC(=O)N1c2ccc(S(=O)(=O)N3CCC(C)CC3)cc2CC1C (stereo not drawn) | 0.62
Cc1cc(=O)oc(C)c1C(=O)NCCc1ccc(Cl)cc1 | -0.43
CCOC(=O)Oc1ccc2c(=O)c(-c3ccccc3OC)c(C(F)(F)F)oc2c1 | -0.04
COc1cc2c(cc1OC)C(C(=O)NCc1ccco1)C(c1ccc(SC)cc1)N(C)C2=O (stereo not drawn) | 0.64
CCNc1ccc(C(F)(F)F)c([N+](=O)[O-])c1 | 0.87
CC1CN(CC(=O)NC2CCCCC2)CC(C)O1 (stereo not drawn) | 0.8
O=C(NCc1ccccc1Cl)C1CCCN(S(=O)(=O)c2cccc3nonc23)C1 (stereo not drawn) | 1.23
Cc1cccc(Cn2c(SCCCO)nc3c2c(=O)[nH]c(=O)n3C)c1 | -0.11
COc1ccc(S(=O)(=O)N(CC(=O)Nc2c(C)cccc2C)Cc2ccccc2)cc1 | 0.2
O=C(Nc1cccc(C(F)(F)F)c1)c1ccc(CN2CCc3ccccc3C2)cc1 | -0.47
COc1ccc(OC)c(C2SCCN2S(=O)(=O)c2ccc3ccccc3c2)c1 (stereo not drawn) | -0.61
c1ccc(CCCN2CCN(C3CCCC3)CC2)cc1 | -0.12
CCOC(=O)C1C(=O)CC(C)(O)C(C(=O)OCC)C1c1c[nH]c2ccccc12 (stereo not drawn) | -0.01
O=C(CCCCCN1C(=O)c2ccccc2C1=O)Oc1ccc([N+](=O)[O-])cc1 | 0.02
Cc1ccc(Cc2c(C)nc3nc(SCC(=O)N4CCC(C)CC4)nn3c2C)cc1 | 1.71
CC(=O)N1c2ccccc2NC2=C(C(=O)CC(c3ccc(Cl)cc3)C2)C1c1ccccc1 (stereo not drawn) | -0.31
O=C(Nc1ccc(Br)cc1)c1ccc2c(c1)C(=O)N(c1ccc([N+](=O)[O-])cc1)C2=O | -0.67

3 successive entries out of the list so far:
Compound | Measles inh
COc1ccccc1NC(=O)c1sc2nc(-c3ccccc3)cn2c1C | 0.14
O=c1c2cn[nH]c2nc(SCc2cccc(F)c2)n1-c1ccc(Cl)cc1 | -0.84
CN(C(=O)c1ccc(=O)[nH]c1)C1(C(=O)NC2CCCC2)CCCCC1 | 0.02

Remaining list, next part
Compound | Measles inh
COc1cc(-c2nc3sc4c(c3c(=O)[nH]2)CCCC4)ccc1OCc1ccc(F)cc1 | -0.59
Cc1ccc(S(=O)(=O)Nc2cc(C(=O)NC3CCCC(C)C3C)ccc2N2CCCCC2)cc1 (stereo not drawn) | 0.28
CC(=O)Oc1ccc2cc(-c3nc(-c4ccc(C)cc4)c(C)s3)c(=O)oc2c1 | 1.84
O=C1CC(N2CCN(c3nc4ccccc4s3)CC2)C(=O)N1c1ccc(Cl)cc1 (stereo not drawn) | -0.31
O=C(Nc1ccc(Br)cc1)c1ccc(Br)o1 | 1.24
CCCC(=O)Nc1cc(-c2nc3ccc(C)cc3o2)ccc1Cl | -0.72
COc1ccc(OC)c(NC(=O)CCS(=O)(=O)c2ccc(C)cc2)c1 | 0.17
COc1ccc(C2(CNC(=O)c3ccccc3[N+](=O)[O-])CCCC2)cc1OC | -0.03
Cc1nc2ccc(N=Cc3cc(Br)ccc3O)cc2s1 | 0.94
CCCCOC(=O)C1=C(C)NC2=C(C(=O)CC(C)(C)C2)C1c1cc(OC)ccc1OC (stereo not drawn) | 0.22
CCOC(=O)c1sc2[nH]c(=S)n(CCNC(C)=O)c(=O)c2c1C | -0.09
O=C(NC12CC3CC(CC(C3)C1)C2)NC12CC3CC(CC(C3)C1)C2 | -0.07
COc1ccccc1N1C(=O)C2C(C(C)=O)=NN(c3ccc(Cl)cc3)C2C1=O (stereo not drawn) | -0.55
Cc1sc2ncn(CC(=O)NCCCN3CCOCC3)c(=O)c2c1S(=O)(=O)N1CCOCC1 | -1.04
O=C(CCCCCn1c(=O)[nH]c2ccccc2c1=O)N1CCN(c2cccc(C(F)(F)F)c2)CC1 | 0.1
O=C(NC(c1ccccc1)c1ccccc1)c1ccc(N2CCN(c3ccccn3)CC2)c([N+](=O)[O-])c1 | -1.66
NS(=O)(=O)c1ccc(-n2ncc3c(=O)[nH]c(SCc4ccc(C(F)(F)F)cc4)nc32)cc1 | -0.73
COc1cc(Cl)cc2c1OC1(C=C2)c2ccccc2-c2ccccc2N1C (stereo not drawn) | -0.13
CCOC(=O)c1sc2nc(CC(=O)OC)nc(Nc3cnc4ccccc4c3)c2c1C | 1.22
COc1ccc(-c2cc(C(F)(F)F)n3nc(C(=O)N4CCN(C(=O)c5ccco5)CC4)cc3n2)cc1 | -0.13
CCc1ccc(NC(=O)c2ccc(F)c(S(=O)(=O)NCc3cccs3)c2)cc1 | -0.6
CC1CCN(C2CCN(Cc3ccccc3F)CC2)CC1 | -0.45
COCCCNC(=O)C1CCN(Cc2nc(-c3cccc(Br)c3)oc2C)CC1 | -0.32
Cn1c(=O)c2c(nc3n(CCO)c(C45CC6CC(CC(C6)C4)C5)cn23)n(C)c1=O | -0.21
Cc1cc(C(F)(F)F)c2c(N)c(C(=O)c3ccc([N+](=O)[O-])cc3)sc2n1 | 0.55

2 records picked at random from those above:
Compound | Measles inh
Cc1nc2ccc(N=Cc3cc(Br)ccc3O)cc2s1 | 0.94
CCNc1ccc(C(F)(F)F)c([N+](=O)[O-])c1 | 0.87

Additional entries follow:
Compound | Measles inh
COc1ccccc1N=Cc1cccc([N+](=O)[O-])c1O | 1.53
N#Cc1c(NC(=O)CCCN2C(=O)c3cccc4cccc(c34)C2=O)sc2c1CCCC2 | 0.15
O=C1CCC([N+](=O)[O-])C(c2ccccc2OCc2ccccc2)N1 (stereo not drawn) | -0.53
COc1cc(-c2nc3cccc(C)n3c2Nc2ccc(C)cc2)ccc1O | -0.99
O=[N+]([O-])c1cc(-n2ncnc2-c2ccc(Cl)cc2)ccc1F | 0.99
CN(C)c1ccc(C2Nc3ccc(C(=O)c4ccccc4)cc3NC3=C2C(=O)CCC3)cc1 (stereo not drawn) | -0.73
CC1=CC(C)(C)N(C(=O)C(C)N2C(=O)c3ccccc3C2=O)c2cc(C)ccc21 (stereo not drawn) | -0.08
CN1C(=S)SC(N2OC3C(=O)N(c4ccccc4)C(=O)C3C2c2ccccc2)C1(C)C (stereo not drawn) | 0.07
Cc1cccc(OCC(=O)Nc2ccc(N3CCOCC3)cc2)c1 | 0.14
CCOC(=O)c1cc2c(=O)n3ccccc3nc2n(CC(C)C)c1=NC(=O)c1ccccc1OCC | 0.09
O=C(OC1=NN(c2ccccc2)CC1)c1cc2ccccc2oc1=O | 0.07
NC(=O)CSc1oc(-c2cccs2)nc1S(=O)(=O)c1ccc(Cl)cc1 | -0.96
CCOc1ccc(NC2CC(=O)N(c3ccccc3F)C2=O)cc1 (stereo not drawn) | 0.82
CCn1cc(C(=O)N2CCCC2)c(=O)c2cc(S(=O)(=O)N3CCOCC3)ccc21 | 0.19
CC(=O)N1CCc2cc(S(=O)(=O)NCCc3ccc(Cl)cc3)ccc21 | -0.88
CC1CCN(CCCNC(=O)C2c3ccccc3C(=O)N3CCc4ccccc4C23)CC1 (stereo not drawn) | -0.32
O=C(CCN1C(=O)C2C3C=CC(C3)C2C1=O)Nc1ccnc2ccccc12 (stereo not drawn) | -0.07
Oc1ccc(C2(c3ccccc3Cl)CCCCC2)cc1 | -0.52
COc1ccc(N2Cc3cccc(C(=O)NCCCN4CCCC4)c3C2=O)cc1 | -2.33
O=C(NC1CCSC1=O)c1cccc([N+](=O)[O-])c1 (stereo not drawn) | -0.64
CC(=O)N1CCc2cc(Br)cc(S(=O)(=O)Nc3ccc(Br)cc3C)c21 | -2.27
Cc1cccc(N(C)C(=O)Cc2c(C(=O)O)[nH]c3ccc(Cl)cc23)c1 | -0.09
CCOC(=O)c1cc2c(=O)n3ccccc3nc2n(C)c1=NC(=O)c1cc(OC)cc(OC)c1 | -0.47
COc1ccc(N=Cc2ccccc2F)cc1 | 0.65
O=C(CCS(=O)(=O)c1ccc(Br)cc1)NCc1ccccc1 | -0.49

Following part:
Compound | Measles inh
CCOC(=O)C1C(c2cccc([N+](=O)[O-])c2)NC(=S)NC1(O)C(F)(F)F (stereo not drawn) | 0.83
CCc1ccccc1Nc1nnc(-c2cc3c(CO)cnc(C)c3oc2=O)s1 | -0.15
CC1Cc2nc(SCC(=O)Nc3ccc(Br)cc3)n(C)c(=O)c2S1 (stereo not drawn) | -0.63
Cc1ccc(Cl)cc1N1CCN(S(=O)(=O)c2c(C)nn(C)c2C)CC1 | -0.22
CS(=O)(=O)Nc1ccc(C(=O)OC2CCCCC2)cc1 | -0.77
O=C(NCc1cccs1)c1ccc(N2CC3CC(C2)c2cccc(=O)n2C3)c(NS(=O)(=O)c2ccc3c(c2)OCCO3)c1 (stereo not drawn) | 0.15
COc1ccc2[nH]c3c(c2c1)CCNC3C1CC=C(C)CC1 (stereo not drawn) | -1.58
O=C(Nc1nnc(Cc2ccc(Cl)cc2)s1)c1cccc(Br)c1 | 2.75
O=C(NC1CCCCCC1)c1ccc2c(c1)OCO2 | 0.39
NC(=O)C1CCN(C(=O)Cn2c(=S)[nH]c3ccccc3c2=O)CC1 | -0.94
Cc1nc2c(C(=O)N3CCCC3)cnn2c(C)c1Cc1ccccc1Cl | -0.89
CNS(=O)(=O)c1cc(-c2nnc(Nc3ccc(C)cc3C)c3ccccc23)ccc1C | -1.44
CC(C)(O)C#Cc1ccc(C#Cc2ccc(C#CC(C)(C)O)cc2)cc1 | 1.98
CCCCCn1c(=O)[nH]c2cc(C(=O)NCc3cccc(Cl)c3)ccc2c1=O | 0.74
O=C(NCCC1=CCCCC1)C1CCN(S(=O)(=O)c2cccnc2)CC1 | -0.15
Cc1cccc(NC(=O)CSc2nnc(CNC(=O)c3ccco3)o2)c1C | 2.04
O=C(O)CN1CCN(Cc2ccccc2Cl)C1=O | 1.32
CCOC(=O)c1cnc2cc(Cl)c(OC)cc2c1Nc1cccc(C(F)(F)F)c1 | -0.09
Nc1ccc(Cc2nc3ccccc3[nH]2)cc1 | 0.03
CC(=O)c1ccc(NC(=O)c2ccc(-c3ccc(Cl)cc3)o2)cc1 | -1.47
O=C1NC(c2ccc(O)cc2O)Nc2sc3c(c21)CCCC3 (stereo not drawn) | 3.82
